SARS PLpro yeast: inhibitors of SARS-CoV papain-like protease in yeast. actives 0.19% (n = 330,000). S. cerevisiae expressing SARS-CoV PLpro, growth rescue; control for the full effect not named in the record. Potency, µM (titrated, usually from 32.9 µM), inactives show at the top dose activity, positive = growth rescue; active means well fitted rising curve with a large enough effect; inconclusive means small, poorly fitted or top-dose-only effect; inactive means no such curve, though single readings can be large or run the other way; also: 0% is about no effect; nearly all actives have a fitted effect of over 55% in size; growth read by luminescence after 48 h
RE007 growth inh: less growth of the S. pombe RE007 Vpr strain; actives 0.21% (n = 360,000); S. pombe RE007 Vpr strain, BacTiter-Glo ATP luminescence, 24 h; control for the full effect not named in the record; Potency, µM (top dose mostly 92.2 µM), for inactives: at the highest dose activity change, negative = less growth; active = well fitted falling curve with a large enough effect; inconclusive = small, poorly fitted or top-dose-only effect; inactive = no such curve, though single readings can be large or run the other way;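 also: % is scaled to controls: 0 for no effect and ±100 for the full control effect; nearly all actives have a fitted effect of over 50% in size; the assay follows cell death caused by Vpr and the record does not say whether a fall means rescue or toxicity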
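Fission yeast strain RE007, carrying one chromosomally integrated HIV-1 vpr copy, was seeded at OD 0.01 in PMG+AL medium with 23 nL pinned compound. After 24 h at 30 °C and 99% humidity, viability was read by BacTiter-Glo luminescence.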
Cruzain noTriton: cruzain (T. cruzi) inhibition without detergent. P25779. purified cruzain, Z-FR-AMC fluorescence, no detergent. Potency, µM, for the others: max response, negative = inhibition, usual class: inhibitors. actives 2.3% (n = 200,000);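 also: plate controls were enzyme without inhibitor for no effect and buffer without enzyme for full effect; nearly all actives have a fitted effect of over 40% in size; top concentration of the series not given in the record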
Target sequence (P25779 123-467 limits assumed): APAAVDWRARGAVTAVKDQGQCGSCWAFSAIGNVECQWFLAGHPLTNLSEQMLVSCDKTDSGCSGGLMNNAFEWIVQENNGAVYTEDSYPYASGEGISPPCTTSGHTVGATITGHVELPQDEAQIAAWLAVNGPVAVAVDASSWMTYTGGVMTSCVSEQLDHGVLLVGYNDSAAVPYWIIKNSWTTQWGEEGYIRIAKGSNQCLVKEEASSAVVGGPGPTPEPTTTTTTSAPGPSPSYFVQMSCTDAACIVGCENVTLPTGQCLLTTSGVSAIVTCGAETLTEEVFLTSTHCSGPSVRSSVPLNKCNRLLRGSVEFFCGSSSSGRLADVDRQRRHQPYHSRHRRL
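Detergent-free condition (0.00005% Triton X-100) in acetate buffer pH 5.5 with DTT. 1.5 nM enzyme and compound were pre-mixed 15 min, then 2 uM Z-FR-AMC substrate added; reaction progress from fluorescence change between first and third reads (60 s).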
Cruzain Triton: blocks cruzain activity in presence of Triton detergent; P25779; purified cruzain, Z-FR-AMC fluorescence, 0.01% Triton; Potency, µM, inactives show max response, negative = inhibition, hits mostly inhibitors; actives 0.43% (n = 200,000);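 also: plate controls were neutral wells for no effect and buffer without enzyme for full effect; nearly all actives have a fitted effect of over 40% in size; top concentration of the series not given in the record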
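Sodium acetate buffer (100 mM, pH 5.5) containing 5 mM DTT and 0.01% Triton X-100 hosted 1.5 nM cruzain and test compound for 15 min at room temperature. Cleavage of 2 uM Z-FR-AMC was then tracked by fluorescence.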
NS1 function inh: blocks influenza NS1 protein function; S. cerevisiae slowed by influenza A NS1, growth recovery by OD600; Potency, µM (highest dose often 46.1 µM), for inactives: top-dose activity, positive = more growth; actives 0.4% (n = 270,000); AID 2326; active means well fitted rising curve with a large enough effect; inconclusive means small, poorly fitted or top-dose-only effect; inactive means no such curve, though single readings can be large or run the other way; also: nearly all actives have a fitted effect of over 50% in size
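OD600 was taken as the measure of yeast growth restored by compound in an NS1-expressing S. cerevisiae strain. Cells had been washed out of glucose medium and diluted 1:100 into galactose -URA medium, pH 6.0.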
2A StopGo: FMDV 2A StopGo reporter, luciferase signal. Potency, µM (top dose mostly 57.9 µM), without a hit: at the top dose signal change, negative = less light. human cells with a luciferase reporter of 2A StopGo recoding; control for the full effect not named in the record. AID 1159524. actives 1.2% (n = 410,000); active = well fitted falling curve with a large enough effect; inconclusive = small, poorly fitted or top-dose-only effect; inactive = no such curve, though single readings can be large or run the other way; tested in HEK293T cells; also: % is scaled to controls: 0 for no effect and ±100 for the full control effect; nearly all actives have a fitted effect of over 45% in size; luciferase light after 4 h
LASV entry inh: Lassa virus entry inhibition; Lassa virus pseudotype entry inhibition, cell reporter; control for the full effect not named in the record; actives 1.2% (n = 300,000); AID 540256; Potency, µM (doses to about 37.9 µM), for the others: at the highest dose activity change, negative = inhibition, most hits filed as inhibitors; active means well fitted inhibition curve with a large enough effect; inconclusive means small, poorly fitted or top-dose-only effect, or effect the other way; inactive means flat fitted curve, though single readings scatter; tested in HEK293 cells; also: % is scaled to controls: 0 for no effect and ±100 for the full control effect; nearly all actives have a fitted effect of over 50% in size; luciferase read-out
Marburg entry inh: blocks Marburg virus binding to or entry into cells; Potency, µM (doses to about 37.8 µM), without a hit: at the highest dose activity change, negative = inhibition, usual class: inhibitors; AID 540276; actives 1.8% (n = 300,000); Marburg virus pseudotyped entry inhibition, cell reporter; control for the full effect not named in the record; about a third of the inactives were read at about 46 µM; active = well fitted inhibition curve with a large enough effect; inconclusive = small, poorly fitted or top-dose-only effect, or effect the other way; inactive = flat fitted curve, though single readings scatter; tested in HEK293 cells; about a fifth of its hits are not listed in these tables; also: % is scaled to controls: 0 for no effect and ±100 for the full control effect; luciferase read-out
The depositor's hits bear a star; ? = inconclusive; nt = not tested or not shown; & = joins results of further samples; [ ] = remark or other dose. Unless noted, calls follow the shape of the dose curve; as a rule, active = well fitted curve in the direction sought with a large enough effect; inconclusive = small, poorly fitted or top-dose-only effect, or another doubt; inactive = no such curve, though single readings can be large; an effect the other way counts as inactive or inconclusive. Potency is read from the fitted curve at half-maximal effect.

mol	SARS PLpro yeast	RE007 growth inh	Cruzain noTriton	Cruzain Triton	NS1 function inh	2A StopGo	LASV entry inh	Marburg entry inh
Cc1ccc(/C=C/C(=O)NCCCN2CCN(CCCNC(=O)/C=C/c3ccc(C)o3)CC2)o1	-5%	12%	?	-13%	-7%	-20%	-2%	-6%
CCCCc1nc(SCC(=O)N2CCOCC2)c2c(=O)n(C)c(=O)n(C)c2n1	3%	6%	nt	nt	0%	-15%	nt	nt
O=C(NCC1CCCO1)c1cc2c(s1)CS(=O)(=O)C2 (stereo not drawn)	0%	-15%	5%	4.6%	-2%	nt	18%	5%
CCOC(=O)CSc1nc2c(cnn2-c2ccc(Cl)cc2)c(=O)[nH]1	-3%	-11%	nt	nt	6%	-19%	-2%[46.1 µM]	1%[46.1 µM]
Cc1cc(C)n(-c2nc3ccccc3nc2Nc2cccc(C)c2C)n1	nt	nt	-11%	-1.2%	nt	1%	13%[46.1 µM]	18%[46.1 µM]
CN(C)C(=S)SCC(=O)NC(=O)NC(C)(C)C	2%	-4%	nt	nt	nt	18%	?	-2%
CSc1nc(SC)c2c3c(oc2n1)COC(C)(C)C3	1%	-21%	?	-1.4%	-40%	-10%	-12%	-16%
CCN(CC)c1nn2c(=O)c(C(=O)NCc3ccc(F)cc3)cnc2s1	nt	nt	-2%	-7.0%	nt	-17%	0%[46.1 µM]	nt
CC(=O)c1cc(-c2ccccc2)n(CC(=O)NC2CCCCC2)c1C	0%	-3%	-10%	-0.6%	nt	0%&-8%	-2%[46.1 µM]	nt
Cn1c(Cn2nnc3ccccc32)nnc1SCC(=O)N1c2ccccc2Sc2ccccc21	11%	-6%	?	-4.9%	-14%	?	-4%	?
C#CC(CC)(CC)NC(=O)c1cc(S(=O)(=O)N2CCCCC2)ccc1N1CCOCC1	3%	-20%	nt	nt	nt	-3%	-4%	21%
Cc1cccc(NC(=O)c2ccc(OCC(=O)NCc3ccccc3)cc2)c1C	1%	-1%	-13%	2.0%	4%	-25%	-10%	?
O=C(Nc1cccc(Cl)c1)c1c(NC(=O)C(F)(F)F)sc2c1CCCC2	nt	nt	?	25µM*	nt	?	?	nt
CS(=O)(=O)NNP(=O)(NNS(C)(=O)=O)NC(=O)c1ccccc1	1%	-17%	nt	nt	6%	20%	nt	nt
CC(NC(=O)C(C)N1CCN(Cc2ccccc2)CC1)c1ccccc1 (stereo not drawn)	3%	-4%	nt	nt	-16%	1%	12%[46.1 µM]	17%[46.1 µM]
COc1c(C(=O)Nc2nnc(C3CC3)s2)csc1Cl	-7%	4%	nt	nt	-30%	59%[activator]	nt	nt
c1c2c(cc3sc(N4CCOCC4)nc13)OCO2	-7%	?	-20%	2.5%	-58%	-15%	?	?
COc1ccc(C(=O)COC(=O)CCNS(=O)(=O)c2ccccc2)cc1Br	-1%	-10%	nt	nt	12%	-9%	4%	-14%
COC(=O)c1ccc(N2CCN(C)CC2)c(NC(=O)COc2ccccc2)c1	2%	7%	nt	nt	-3%	-20%	-30%	?
COc1cc(C=C2C(=O)NC(=O)NC2=O)cc(OC)c1OC	1%	20%	nt	nt	3%	-5%	nt	nt
O=C(NCCS(=O)(=O)NCc1ccccc1Cl)c1ccccc1	4%	7%	nt	nt	nt	30%[activator]	6%	?
Cc1ccc(S(=O)(=O)N/N=C/c2ccc3nccnc3c2)cc1	-3%	18%	nt	nt	1%	45%[activator]	nt	nt
CCOc1ccc(C(=O)N2CCCCCC2)cc1	-1%	23%	-8%	0.0%	3%	18%	10%	?
CC(C)(C)NC(=O)CSc1ccc(S(=O)(=O)N2CCOCC2)cn1	-5%	?	nt	nt	nt	-19%	-3%	-12%

An excerpt from above in order of length of the SMILES, ascending.
mol	SARS PLpro yeast	RE007 growth inh	Cruzain noTriton	Cruzain Triton	NS1 function inh	2A StopGo	LASV entry inh	Marburg entry inh
c1c2c(cc3sc(N4CCOCC4)nc13)OCO2	-7%	?	-20%	2.5%	-58%	-15%	?	?
COc1cc(C=C2C(=O)NC(=O)NC2=O)cc(OC)c1OC	1%	20%	nt	nt	3%	-5%	nt	nt
COC(=O)c1ccc(N2CCN(C)CC2)c(NC(=O)COc2ccccc2)c1	2%	7%	nt	nt	-3%	-20%	-30%	?

Later entries.
mol	SARS PLpro yeast	RE007 growth inh	Cruzain noTriton	Cruzain Triton	NS1 function inh	2A StopGo	LASV entry inh	Marburg entry inh
CCCCn1c(N)c(N(CC)C(=O)c2cccs2)c(=O)[nH]c1=O	2%	-11%	nt	nt	nt	-2%	5%	12%
CC(C)CC(NC(=O)C1CCCN1C(=O)CNC(=O)OCc1ccccc1)C(=O)O (stereo not drawn)	-1%	-11%	nt	nt	1%	3%	nt	nt
COc1cc(NC(=O)C(C)Oc2ccccc2)c(OC)cc1NC(=O)c1ccccc1 (stereo not drawn)	2%	5%	nt	nt	-40%	-3%	-18%	?
Cc1ccc(CCNC(=O)c2c[nH]c3ccc(S(=O)(=O)Nc4cccc(C(F)(F)F)c4)cc3c2=O)cc1	nt	nt	-1%	-2.4%	nt	-20%	-34%[46.1 µM]	nt
CCCOc1ccc(C(=O)Nn2c(C)nc3ccccc3c2=O)cc1	-30%	-5%	19%	2.4%	-53%	-10%	-31%	-17%
CCN(CC)C(=O)c1ccccc1NC(=O)CN1C(=O)c2ccccc2S1(=O)=O	6%	-10%	nt	nt	-1%	-7%	-1%	13%[46.1 µM]
COc1ccc(N2C(=O)C3CCCN3C2c2cccc(Br)c2)cc1 (stereo not drawn)	-1%	4%	8%	0.6%	?	-15%	nt	nt
COc1ccc2[nH]c(C)c(CCN3C(=O)OC(C)(C)C3(C)O)c2c1 (stereo not drawn)	-3%	3%	-7%	2.6%	8%	-8%	nt	nt
CC(=O)OC1CCC2(C)C(=CCC3C4CC(=O)N(O)C(=O)C4(C)CCC32)C1 (stereo not drawn)	nt	11%	nt	nt	nt	-5%	0%[46.1 µM]	?
CCOC(=O)CC(=O)Nc1ccc(C)cc1	-4%	2%	0%	-0.2%	-7%	28%	15%	-17%
CC(=O)Nc1ccc(NC(=O)C(C)OC(=O)CCC2CCCCC2)cc1 (stereo not drawn)	-5%	-17%	nt	nt	-8%	-11%	23%	-9%
O=C(CCSCc1cccc(Cl)c1)NCCc1ccccc1	-68%	-10%	?	-4.9%	-10%	-11%	8%	6%
CN(C)CCCN(C(=O)/C=C/c1cccs1)c1nc2ccc(F)cc2s1	-3%	-11%	nt	nt	nt	-16%	-30%	8.9µM*
Cc1c(C(=O)C(=O)N2CCC3(CC2)OCCO3)c2ccccc2n1C	-1%	-22%	nt	nt	-1%	7%	0%	?
Cc1cc(Cl)ccc1OCC(=O)Nc1ccc2oc(=O)ccc2c1	0%	-5%	nt	nt	3%	-17%	nt	?
CC(C)OP(=O)(Nc1cccc2ccccc12)OC(C)C	7%	2%	14%	-4.3%	10%	-6%	12%[46.1 µM]	?
COc1ccc(-c2nc(-c3cccs3)c(-c3cccs3)[nH]2)cc1O	-10%	-16%	-12%	-9.8%	-171%	?	-15%	16%
CCOC(=O)c1cc(-c2ccc(/C=N\n3cnnc3)o2)ccc1Cl	2%	-17%	-17%	-8.1%	-9%	0%	0%	-21%
CC(C)NC(=O)Cn1c(SCC(=O)N2CCc3ccccc3C2)nc2ccccc21	-1%	-9%	0%	-0.4%	-4%	-8%	-2%	12%
Cc1cc(NCc2ccc3c(c2)OCO3)n2nc(C)nc2n1	2%	-4%	-1%	-2.1%	-1%	-9%	nt	nt
Cc1ccc2c(c1)N(CC(=O)OCC(=O)NCc1ccccc1)C(=O)CO2	1%	1%	nt	nt	-8%	-15%	nt	nt
Cc1nn2c(NCCN3CCOCC3)c3c(nc2c1-c1ccccc1)CCCC3	0%	-20%	nt	nt	-4%	-12%	-19%[46.1 µM]	?
O=C(O)c1cccc(CN2C(=O)SC(Nc3ccccc3)C2=O)c1 (stereo not drawn)	-2%	18%	6%	4.1%	0%	15%	22%	10%
CCOc1cc(CN2CCN(CCOCCO)CC2)ccc1OC	-5%	6%	-9%	-1.0%	-6%	nt	9%	-1%
O=C(NCc1ccccc1)/C(=C/c1cccc([N+](=O)[O-])c1)NC(=O)c1ccco1	-1%	7%	nt	nt	18%	-6%	0%	-9%[46.1 µM]
CC(=O)c1ccc(Nc2cc(C)nc3ccc(C)cc23)cc1	0%	-2%	nt	nt	-2%	-7%	?	?
COc1cc(/C=C/c2cc(C(=O)O)c3ccccc3n2)ccc1OC(F)F	0%	-2%	nt	nt	6%	-6%	nt	nt
CC(NC(=O)COc1ccccc1Cl)c1ccccc1 (stereo not drawn)	4%	-4%	nt	nt	-1%	?	nt	nt
CC1CCN(CC(=O)Nc2cccc(C(=O)Nc3cccc(C(F)(F)F)c3)c2)CC1	-4%	-1%	-3%	1.1%	5%	-13%	?	8.9µM*
Cc1oc2ncnc(N3CCCCC3)c2c1C(=O)NCC1CCN(Cc2ccc(F)cc2)CC1	nt	nt	-2%	-0.1%	nt	-24%	19%[46.1 µM]	nt
C#CCn1cc[n+](CC(=O)N(C)C)c1	-1%	0%	0%	-0.7%	1%	-14%	1%	16%
CCCc1cnc2c(c1SCc1cccc(F)c1)c(=O)n(C)c(=O)n2C	nt	nt	-2%	-0.5%	nt	?	5%[46.1 µM]	nt
Cc1ccc(C(=O)NC(=S)N(C)C2CCCCC2)cc1	1%	6%	nt	nt	-12%	48%[activator]	nt	nt
